# Six1-Eya2 inh: blocks human Six1 binding to Eya2; AlphaScreen GST-Six1/His-Eya2 binding, biochemical; stronger effect = lower value; control for the full effect not named in the record; AID 651725; activity change, % (concentration not given with the values); actives 0.56% (n = 360,000); in the data active = activity change below about -65%; inconclusive = about -30% to -65%; inactive = above about -30%; also: % is scaled to controls: 0 for no effect and ±100 for the full control effect
#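 AlphaScreen luminescence read after one hour at 37 °C in darkness. Pin-transferred compounds met GST-Six1 and His-Eya2 protein (5X stock 250 nM/500 nM) plus glutathione donor and Ni-chelate acceptor beads (5X, 50 ug/mL).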
# TRPML1 ag: agonists of human TRPML1 channel; Q9GZU1; TRPML1-expressing cells, Ca2+ dye fluorescence, FDSS; host cell line not named in the record; reference of the full effect not given here; activation, % (test concentration not listed); actives 0.12% (n = 410,000); in the data active = activation above about 50%; inconclusive = about 30% to 50%; inactive = below about 30%; also: 0% is about no effect; the text of the record puts the active cut at 80%
# Target sequence (Q9GZU1 whole entry, looked up): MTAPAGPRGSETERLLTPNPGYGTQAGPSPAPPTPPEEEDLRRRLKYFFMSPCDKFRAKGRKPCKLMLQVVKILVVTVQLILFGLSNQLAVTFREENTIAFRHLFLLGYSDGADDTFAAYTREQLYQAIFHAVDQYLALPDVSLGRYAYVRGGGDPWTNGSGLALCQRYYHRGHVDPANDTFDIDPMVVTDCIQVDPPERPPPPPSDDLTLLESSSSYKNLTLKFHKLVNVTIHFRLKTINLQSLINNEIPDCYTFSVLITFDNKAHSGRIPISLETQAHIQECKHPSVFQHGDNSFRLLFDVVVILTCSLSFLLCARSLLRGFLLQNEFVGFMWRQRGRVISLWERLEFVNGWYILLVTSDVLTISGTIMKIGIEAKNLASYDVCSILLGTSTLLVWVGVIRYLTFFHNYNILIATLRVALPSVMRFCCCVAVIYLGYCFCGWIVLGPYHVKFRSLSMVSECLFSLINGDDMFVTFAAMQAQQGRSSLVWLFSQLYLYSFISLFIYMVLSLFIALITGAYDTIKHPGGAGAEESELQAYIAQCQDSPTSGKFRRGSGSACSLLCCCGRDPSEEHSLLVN
#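 In this qHTS format, compounds were pin-transferred onto Ca8-dye-loaded TRPML1-DL cells induced with Tet overnight, and intracellular Ca2+ fluorescence was recorded kinetically for 110 s after a 10 s baseline. A subsequent 4uM final 54-4 (EC80) addition followed by a second 110 s read served as the antagonist phase.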
# D2 PAM: positive allosteric modulators of human D2 dopamine receptor; P14416; DiscoveRx D2 beta-arrestin cells, luminescence, 90 min; 100% = 57 uM dopamine signal; potentiation, % (concentration not given with the values); actives 0.23% (n = 360,000); active = potentiation of 50% or more; inconclusive = 30% to 50%; inactive = 30% or less;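 also: compound concentration not given in the record; tested on top of an EC20 dose of dopamine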
# Target sequence (P14416 whole entry, looked up): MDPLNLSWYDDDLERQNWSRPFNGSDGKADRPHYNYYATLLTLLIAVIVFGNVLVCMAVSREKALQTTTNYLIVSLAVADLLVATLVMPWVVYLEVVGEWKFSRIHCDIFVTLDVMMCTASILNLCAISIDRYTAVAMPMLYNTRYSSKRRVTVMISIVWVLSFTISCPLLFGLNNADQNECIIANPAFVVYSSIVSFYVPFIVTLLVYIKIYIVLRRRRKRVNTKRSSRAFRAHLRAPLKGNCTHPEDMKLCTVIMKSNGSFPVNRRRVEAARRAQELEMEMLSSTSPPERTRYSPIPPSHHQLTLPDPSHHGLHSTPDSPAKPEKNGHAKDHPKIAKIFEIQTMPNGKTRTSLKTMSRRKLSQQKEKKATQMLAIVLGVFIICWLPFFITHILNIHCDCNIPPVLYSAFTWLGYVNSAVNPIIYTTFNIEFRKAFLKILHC
#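 D2 cells co-treated with compound plus 50 nM dopamine (EC20) for 90 min at 37 deg C to detect potentiation. Beta-arrestin recruitment was read as enzyme-fragment luminescence after 1 h at ambient temperature. Full response was set by 57 uM dopamine.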
# PINK1 modulator: changes PINK1 expression | PINK1 immunofluorescence, high-content cytometry, 24 h | Potency, µM (series often up to 76.6 µM), for inactives: at the highest dose activation (PINK1 increase), most hits filed as activators | actives 0.2% (n = 410,000) | AID 624263; active = well fitted activation curve with a large enough effect; inconclusive = small, poorly fitted or top-dose-only effect; inactive = flat fitted curve, though single readings scatter; cell line not stated here;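 also: potency is read from the fitted curve at half-maximal effect; % of control where 0% means no effect; nearly all actives have a fitted effect of over 65% in size; a mitochondrial uncoupler was the plate control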
#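 PINK1 protein level read as immunofluorescence by microplate cytometer in a fixed, stained stable cell line after 24 h exposure to five compound concentrations, with CCCP as control.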
# CtBP-E1A blk: inhibitors of CtBP/E1A interaction | activity change, % (concentration not given with the values) | actives 0.49% (n = 340,000) | AID 651724 | AlphaScreen GST-E1A/His-CtBP binding, 1536-well; stronger effect = lower value; control for the full effect not named in the record; in the data active means activity change below about -65%; inconclusive means about -30% to -65%; inactive means above about -30%; also: % is scaled to controls: 0 for no effect and ±100 for the full control effect
#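 Homogeneous bead-based format: GST-tagged E1A captured on glutathione donor beads, His-tagged CtBP on nickel acceptor beads; compounds precede bead addition by 2 h at 37 °C.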
# D2 agonist: human D2 receptor agonism in beta-arrestin assay; DiscoveRx PathHunter D2 beta-arrestin, luminescence, 90 min; 100% = 57 uM dopamine signal; activation, % (test concentration not listed); actives 0.084% (n = 360,000); P14416; AID 624465; in the data active = activation above about 40%; inconclusive = about 15% to 40%; inactive = below about 15%; also: compound concentration not given in the record; the text of the record calls up to 30% inactive
#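 Agonist mode: compounds alone added to overnight-plated D2 PathHunter cells for 90 min at 37 C, with 57 uM final dopamine (EC100) defining full response. Beta-arrestin recruitment detected by chemiluminescent reagent, read after 1 h at ambient temperature.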
# * marks the source's active call; other numbers are inactive results; ? = inconclusive; · = no result given; & = joins results of further samples; [ ] = another dose, or the depositor's remark.
# Start of the data: the first six compounds, ahead of the listing:
SMILES,Six1-Eya2 inh,TRPML1 ag,D2 PAM,PINK1 modulator,CtBP-E1A blk,D2 agonist
CCN(CC)C(=O)NC1CC(=O)N(c2ccc(OC)cc2)C1 (stereo not given),0.9,0.7,-5.1,1.0%,8.8,-0.8
Cc1ccc(S(=O)(=O)N2CCN(C(=O)c3cccs3)CC2)cc1,-0.1,0.8,-2.6,0.5%,5.9,-0.9
Cc1noc(C)c1S(=O)(=O)Nc1ccc(C(=O)N2CCN(c3ccc(F)cc3)CC2)cc1,8.1,1.3,-2.4,-1.0%,-1.9,9.2
O=C(Nc1ccccc1)c1ccc(N2CCN(c3ccccn3)CC2)c(S(=O)(=O)N2CCOCC2)c1,-12.2,-0.1,-0.3,4.2%,-12.7,5.1
CCOc1ccc(NC(=O)COC(=O)c2cc([N+](=O)[O-])ccc2N2CCOCC2)cc1,-8.5,2.4,-67.8,-3.2%,-3.8,-5.6
Cc1cccc(S(=O)C(c2ccccc2)c2ccccc2)c1 (stereo not given),0.3,2.4,-11.4,-0.1%,-3.2,-1.9

# This part in full, repeating the preview:
SMILES,Six1-Eya2 inh,TRPML1 ag,D2 PAM,PINK1 modulator,CtBP-E1A blk,D2 agonist
CCN(CC)C(=O)NC1CC(=O)N(c2ccc(OC)cc2)C1 (stereo not given),0.9,0.7,-5.1,1.0%,8.8,-0.8
Cc1ccc(S(=O)(=O)N2CCN(C(=O)c3cccs3)CC2)cc1,-0.1,0.8,-2.6,0.5%,5.9,-0.9
Cc1noc(C)c1S(=O)(=O)Nc1ccc(C(=O)N2CCN(c3ccc(F)cc3)CC2)cc1,8.1,1.3,-2.4,-1.0%,-1.9,9.2
O=C(Nc1ccccc1)c1ccc(N2CCN(c3ccccn3)CC2)c(S(=O)(=O)N2CCOCC2)c1,-12.2,-0.1,-0.3,4.2%,-12.7,5.1
CCOc1ccc(NC(=O)COC(=O)c2cc([N+](=O)[O-])ccc2N2CCOCC2)cc1,-8.5,2.4,-67.8,-3.2%,-3.8,-5.6
Cc1cccc(S(=O)C(c2ccccc2)c2ccccc2)c1 (stereo not given),0.3,2.4,-11.4,-0.1%,-3.2,-1.9
COc1cc2c(cc1OC)C(C(=O)N1CCOCC1)C(c1cccs1)N(C)C2=O (stereo not given),4.8,0.0,-13.6,-3.1%,-1.7,-2.9
COc1ccc(OCC(=O)NCC(c2ccc(OC)cc2)N2CCCCC2)cc1 (stereo not given),-1.3,-0.6&0.1,-30.3,-0.5%&-1.7%,1.4,-2.5
Cc1ccccc1OCC(=O)N/N=C/c1ccc2c(c1)OCCO2,2.0,0.7,-13.7,17.2%,-6.1,-5.8
Cc1ccc(-c2nc(CN(C)C(C3CC3)C3CC3)c(C)o2)cc1,2.4,0.0,-21.1,0.1%,8.9,-0.1
O=C(NCC(=O)N(c1ccccc1)C(C(=O)NCC1CCCO1)c1ccccc1)c1ccco1 (stereo not given),11.0,-1.0,6.3,-1.4%,-1.4,-2.9
COc1ccc(NC(=S)NCc2cccnc2)cc1OC,-9.2,0.6,-34.7,-0.3%,6.7,-16.3
N=c1c(C(=O)NCC2CCCO2)cc2c(=O)n3ccccc3nc2n1Cc1ccccc1 (stereo not given),-2.0,-0.5,-33.8,-1.8%,-1.3,-9.0
O=C(CSc1nc(-c2ccco2)cc(C(F)(F)F)n1)NN1CCOCC1,-1.1,1.6,-6.0,-1.1%,0.7,2.5
Cc1ccsc1/C=C/c1n[nH]c(=O)c(C#N)c1C,1.0,-0.4,-0.7,2.6%,4.3,-0.7
O=C(Nc1ccc(Cl)cn1)c1ccccc1-c1ccccc1,0.8,-0.4,-6.5,1.5%,4.2,-6.5
c1ccc(-c2cc3c(-n4cccc4)ncnc3o2)cc1,-11.4,2.7,29.7,-1.0%,2.0,1.1
COc1ccccc1-c1nc(-c2ccncc2)no1,0.4,0.1,16.4,·,0.7,0.0
CCn1c(-c2ccco2)nc2ccccc21,-0.3,3.1,-9.4,-0.6%,4.6,0.8
Cc1cccc(NC(=O)Cn2c(=O)n(CCC(=O)NC3CCCC3)c(=O)c3ccccc32)c1,10.0,-0.4,-5.1,17.9%,5.3,0.2
COc1ccc(NC(=O)C2CCN(c3ncnc4c3nc3n4CCCCC3)CC2)cc1Cl,?,-0.2,-5.1,8.0%,?,-0.4
Cc1ccc(S(=O)(=O)NCCC(=O)NCc2ccco2)cc1,-2.3,-0.4,-14.9,1.9%,-1.7,1.4
CC1(C)O[C@@H]2CC3C4C[C@H](F)C5=CC(=O)C=CC5(C)C4C(O)CC3(C)[C@]2(C(=O)CO)O1 (stereo not given in full),2.4,0.0,-9.7,0.8%,5.6,3.0
CCCCNc1nc2c(-c3ccccc3)nnn2c2ccccc12,6.8,-1.0,-13.0,0.6%,·,-5.1
O=c1cc(N2CCN(Cc3ccccc3)CC2)[nH]c(=O)n1-c1ccc(Br)cc1,2.9,-0.1,-3.8,2.5%,5.2,-0.8
CCN(CC)CCN(C(=O)CCS(=O)(=O)c1ccccc1)c1nc2cc3c(cc2s1)OCO3,-7.5,-0.3,-24.4,-0.7%,-0.2,-5.2
CC(C)CCNC(=O)NC(=O)CSc1nnc(COc2ccccc2Cl)o1,-2.4,7.1,-3.7,-0.4%,-2.4,-1.5
Cc1ccccc1NS(=O)(=O)c1ccc2c(c1)NC(=O)CCS2,2.9,-0.6&1.4,7.4,-0.5%&-1.1%,1.2,-3.4
CCN(C[C@H]1N[C@@](Cc2ccccc2)(C(=O)OC)[C@H]2C(=O)N(Cc3ccccc3)C(=O)[C@@H]12)S(=O)(=O)c1ccc(C)cc1,-7.5,1.6,22.4,0.6%,4.8,10.4
Cc1ccc(Cl)cc1-c1cc(C(=O)NCc2ccc(C(F)(F)F)cc2)[nH]n1,-0.2,6.0,-13.4,17.0%,2.5,-3.6
Cc1ccccc1Cn1cc(NC(=O)c2noc(C(C)C)c2[N+](=O)[O-])cn1,-7.1,3.6,-3.3,1.9%,·,13.9
O=C1NN=C2CCCCCCC12 (stereo not given),9.8,0.3,-3.8,0.7%,0.0,-3.9
C=C1C(C(=O)Nc2cccc(OC)c2)C1C(=O)Nc1cccc(OC)c1 (stereo not given),0.9,0.1,0.1,-2.1%,3.2,3.9
COc1ccc(C2(CNC(=O)c3ccc(Br)o3)CCOCC2)cc1,5.4,-0.4,-17.1,-3.5%,-1.3,-4.1
Cc1ccc(NC(=O)C(C)c2cccc(C(=O)c3ccccc3)c2)cc1O (stereo not given),6.1,2.9,-16.2,?,16.1,0.2
COc1ccc(F)cc1S(=O)(=O)NCCN1CCOCC1,-0.1,·,6.4,2.0%,·,1.4
CC(C)(C)NC(=O)CSCc1c(Cl)cccc1Cl,9.7,-0.7,-10.7,0.4%,6.3,-5.5
O=C(Nc1cccc(Cl)c1N1CCCCC1)c1ccc(N2CCOCC2)c([N+](=O)[O-])c1,15.4,-0.5,2.1,9.3%,2.3,-1.9
COc1ccc(-n2ncc3c2CC(C)(C)CC3NC(=O)c2cnc(C)cn2)cc1 (stereo not given),-1.8,0.2,-2.8,2.4%,7.3,4.4
CS(=O)(=O)N1CCC(C(=O)N2CCN(c3ccc(F)cc3)CC2)CC1,1.2,1.0,1.6,0.0%,1.6,2.8
COc1ccc(N2CCN(C(=O)CSc3nnc4n3C(C)(C)Cc3ccccc3-4)CC2)cc1,4.0,0.2,-0.2,1.3%[38.3 µM],0.7,-1.7
O=C(Nc1cccc(NC(=O)c2ccc(Br)o2)n1)c1ccc(Br)o1,-4.4,-0.1,4.6,2.2%[38.3 µM],-0.7,-0.9
Cc1noc(/C=C/N(C)C)c1S(=O)(=O)N1CCCC(C(=O)NC(C)c2ccccc2)C1 (stereo not given),-0.3,-0.1,-8.4,11.2%[38.3 µM],-1.7,-2.0
COC(=O)c1cc(N=Cc2c(O)c3ccccc3oc2=O)cc(C(=O)OC)c1,-2.3,-0.7,-22.7,-1.1%,·,-3.4
CCOC(=O)C1CCCN(C(=O)Cc2ccc(C)cc2)C1 (stereo not given),26.1,-0.7,3.3,-1.5%,0.0,-2.5
CCCCNC(=O)/C=C1\Sc2ccccc2NC1=O,1.2,-0.3,-13.8,0.2%,10.7,1.7
O=C(COc1ccc(Cl)cc1)Nc1nc(-c2ccncc2)cs1,6.3,1.7,-9.7,7.2%,2.6,7.0
COc1ccc(CN(C)C(=O)Cn2cnc3c(OCc4ccccc4)ncnc32)cc1OC,2.7,-0.2,2.1,1.5%,0.0,0.3
CCN(CCNC(=O)Cn1c(=O)sc2ccccc21)c1ccccc1,-5.1,4.7,-4.4,-1.0%,-1.4,-2.8
COc1ccc2c(CC(=O)OCc3nc4ccsc4c(=O)[nH]3)coc2c1,-3.1,1.7,-9.8,-0.7%,-5.3,-1.6
COc1ccc(NS(=O)(=O)c2ccc(S(=O)(=O)N3CCOCC3)cc2)cc1,13.2,1.0,-35.7,0.1%,8.0,-4.7
O=C(CCC1CCCC1)Nc1ccc(C(=O)NCc2cccnc2)cc1,3.0,0.2,-3.3,0.2%,10.3,-3.4
CCc1nc2ccccc2n1Cc1ccc(OC)c(OC)c1,-1.8,-0.1,-1.7,2.4%,7.3,-3.4
CC(=O)C[C@H](O)CC(=O)[C@H]1OC(=O)[C@@H](C)C/C=C\Cc2ccccc21,7.9,-0.1,·,-1.0%,5.7,0.1
CCOC(=O)C1CCCN(C(=O)c2cc(C(C)(C)C)nn2C)CC1 (stereo not given),0.3,-0.8,-4.5,-0.7%,6.5,-3.2
Cc1ccccc1NC(=O)c1cc(S(=O)(=O)Nc2cccc(C(=O)O)c2)ccc1Cl,9.8,2.0,-1.5,-2.4%,7.4,5.5
Cc1ccc(OCC(=O)N/N=C\c2c(C)n(C)c3ccccc23)c([N+](=O)[O-])c1,-21.8,0.4,-10.5,2.0%,-23.3,-5.3
O=C(COC(=O)c1ccccc1O)NCCc1c[nH]c2ccccc12,-9.3,0.0,-0.5,-1.6%,-2.5,-4.0
COCCn1c(CN2CCN(c3ccccc3)CC2)nc2c1c(=O)n(C)c(=O)n2C,7.7,-0.2,-12.4,-0.3%,3.7,2.6
O=C1[C@H]2[C@@H](c3ccc(F)cc3)N3C(=O)N(c4ccc(Br)cc4)C(=O)[C@@]3(Cc3ccc(Cl)cc3)[C@H]2C(=O)N1C1CCCCC1,0.4,0.3,3.0,1.5%,·,1.9
# Additional compounds follow:
SMILES,Six1-Eya2 inh,TRPML1 ag,D2 PAM,PINK1 modulator,CtBP-E1A blk,D2 agonist
O=c1oc2ccc3ccccc3c2cc1-c1nnc(-c2cccs2)o1,-17.2,-0.4,-11.2,24.3%,-9.1,-3.1
CC(C)Oc1ccc2ccccc2c1C=O,16.8,0.2,7.5,-0.8%,16.6,1.6
CCOC(=O)C1CCN(C(=O)c2ccc(Cl)c(S(=O)(=O)N3CCOCC3)c2)CC1,0.5,-0.6,0.1,2.0%[38.3 µM],6.7,1.0
CC(CCc1ccccn1)(CCc1ccccn1)C(=O)c1ccccc1,5.4,1.1,-20.3,1.5%,6.0,1.2
COc1cccc(NC(=O)/C=C/c2ccc([N+](=O)[O-])cc2)c1,-18.0,1.0,-1.3,5.4%,-22.2,0.7

# From PubChem
